CtBP-E1A blk: inhibitors of CtBP/E1A interaction; AlphaScreen GST-E1A/His-CtBP binding, 1536-well; stronger effect = lower value; control for the full effect not named in the record; activity change, % (test concentration not listed); actives 0.49% (n = 340,000); AID 651724; in the data active means activity change below about -65%; inconclusive means about -30% to -65%; inactive means above about -30%; also: % is scaled to controls: 0 for no effect and ±100 for the full control effect; compound concentration not given in the record
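Homogeneous bead-based format: GST-tagged E1A captured on glutathione donor beads, His-tagged CtBP on nickel acceptor beads; compounds precede bead addition by 2 h at 37 °C.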
Six1-Eya2 inh: inhibitors of human Six1/Eya2 interaction. activity change, % (concentration not given with the values). actives 0.56% (n = 360,000). AlphaScreen GST-Six1/His-Eya2 binding, biochemical; stronger effect = lower value; control for the full effect not named in the record. Q15475+O00167; in the data active = activity change below about -65%; inconclusive = about -30% to -65%; inactive = above about -30%; also: % is scaled to controls: 0 for no effect and ±100 for the full control effect
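Compounds are tested against tagged Six1 and Eya2 proteins bridged by glutathione donor and nickel acceptor beads; after a one-hour incubation at 37 °C without light, AlphaScreen emission is recorded.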
TRPV1 potentiator: enhances activation of the human vanilloid receptor TRPV1. TRPV1-expressing cells, Fluo-8 calcium influx, capsaicin EC20 potentiation; host cell line not named in the record; control for the full effect not named in the record. actives 0.02% (n = 320,000). Q8NER1. potentiation, % at 8.33 µM; active means potentiation above 80%; inconclusive means 30% to 80%; inactive means below 30%; also: 0% is about no effect
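TRPV1-expressing cells were cultured overnight at 35.5C and loaded with Fluo-8 calcium dye for 40 to 90 min at room temperature. After a 10 s baseline, compound was added and calcium influx was read kinetically for 3 min (ex 480/em 520 nm).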
Sfp inh: inhibitors of Bacillus subtilis Sfp phosphopantetheinyl transferase; Q9F4F7; Biochemical Sfp PPTase activity, qHTS; Potency, µM, for inactives: max response, negative = inhibition, actives largely listed as inhibitors; actives 3.5% (n = 310,000); active = well fitted inhibition curve with a large enough effect; inconclusive = small, poorly fitted or top-dose-only effect, or another doubt; inactive = no such curve, though single readings can be large or run the other way;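 also: the enzyme is Sfp with the accession as filed and its product quenches rhodamine fluorescence; potency is read from the fitted curve at half-maximal effect; 0% = enzyme reaction without inhibitor and -100% = no enzyme wells; top concentration of the series not given in the record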
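Sfp 15 nM + cpd, 15 min RT; start w/ rhodamine-CoA 5 uM, BHQ-2-YbbR 12.5 uM (final); 50 mM Hepes pH 7.6, 10 mM MgCl2, 0.01% NP-40, 0.01% BSA; read 525/598 nm at 0 and 30 min.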
D2 ag: human D2 receptor agonism in beta-arrestin assay; P14416; DiscoveRx PathHunter D2 beta-arrestin, luminescence, 90 min; 100% = 57 uM dopamine signal; activation, % (no concentration beside the values); actives 0.084% (n = 360,000); AID 624465; in the data active = activation above about 40%; inconclusive = about 15% to 40%; inactive = below about 15%; also: compound concentration not given in the record; the text of the record calls up to 30% inactive
Target sequence (P14416 whole entry, looked up): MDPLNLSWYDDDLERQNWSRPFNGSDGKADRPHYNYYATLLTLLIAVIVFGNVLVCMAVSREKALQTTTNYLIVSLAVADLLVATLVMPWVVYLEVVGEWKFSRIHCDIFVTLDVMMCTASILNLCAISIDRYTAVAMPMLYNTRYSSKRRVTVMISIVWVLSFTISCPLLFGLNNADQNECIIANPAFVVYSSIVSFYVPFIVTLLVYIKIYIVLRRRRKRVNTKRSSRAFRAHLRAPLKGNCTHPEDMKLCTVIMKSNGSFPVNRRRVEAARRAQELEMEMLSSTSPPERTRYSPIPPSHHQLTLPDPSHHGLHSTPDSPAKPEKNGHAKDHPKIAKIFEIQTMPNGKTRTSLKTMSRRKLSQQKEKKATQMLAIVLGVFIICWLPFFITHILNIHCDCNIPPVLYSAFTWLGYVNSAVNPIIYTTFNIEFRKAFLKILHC
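Agonist mode: compounds alone added to overnight-plated D2 PathHunter cells for 90 min at 37 C, with 57 uM final dopamine (EC100) defining full response. Beta-arrestin recruitment detected by chemiluminescent reagent, read after 1 h at ambient temperature.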
D2 PAM: human D2 receptor positive allosteric modulation; P14416; DiscoveRx D2 beta-arrestin cells, luminescence, 90 min; 100% = 57 uM dopamine signal; potentiation, % (test concentration not listed); actives 0.23% (n = 360,000); active = potentiation of 50% or more; inconclusive = 30% to 50%; inactive = 30% or less;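 also: compound concentration not given in the record; tested on top of an EC20 dose of dopamine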
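D2 cells co-treated with compound plus 50 nM dopamine (EC20) for 90 min at 37 deg C to detect potentiation. Beta-arrestin recruitment was read as enzyme-fragment luminescence after 1 h at ambient temperature. Full response was set by 57 uM dopamine.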
PINK1 modulator: PINK1 expression modulation; PINK1 immunofluorescence, high-content cytometry, 24 h; Potency, µM (top dose mostly 76.6 µM), without a hit: top-dose activation (PINK1 increase), most hits filed as activators; actives 0.2% (n = 410,000); AID 624263; active = well fitted activation curve with a large enough effect; inconclusive = small, poorly fitted or top-dose-only effect; inactive = flat fitted curve, though single readings scatter; cell line not stated here;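 also: potency is read from the fitted curve at half-maximal effect; % of control where 0% means no effect; nearly all actives have a fitted effect of over 65% in size; a mitochondrial uncoupler was the plate control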
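Readout is PINK1 immunofluorescence, quantified alongside mitochondrial, cell and nuclear markers by laser-scanning microplate cytometry. Cells from a stable line were exposed to compound titrations (5 concentrations) for 24 hours, with CCCP controls.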
* = called active by the depositor; ? = inconclusive; . = no result given; & = joins results of further samples; [ ] = dose if it differs, or a comment.

SMILES	CtBP-E1A blk	Six1-Eya2 inh	TRPV1 potentiator	Sfp inh	D2 ag	D2 PAM	PINK1 modulator
CCCCn1c(SCC(=O)Nc2cccc(OC)c2)nc2ccc(N3CCOCC3)cc2c1=O	1	-10	4	-24%	5.8	19	.
O=C(CN(C(=O)CCC(=O)Nc1nccs1)c1ccc(F)cc1)NCCc1ccccc1	-8	-9	30	0%	0.6	-2	-0.2%
OC1CNc2c(ccc3ccccc23)C1 (stereo not drawn)	1	-2	.	.	6.2	8	2.5%
Nc1nc(NC2CCCC2)cc(=O)[nH]1	-4	-7	.	.	-1.1	6	-1.0%
Cc1cc(-c2nnco2)c(C)n1-c1ccccc1	-2	-23	14	?	-2.3	-10	-1.2%
Cc1nn(Cc2ccccc2)c(C)c1C(=O)NCC(c1cccs1)N1CCOCC1 (stereo not drawn)	-4	6	6	.	-1.8	1	1.3%
O=C(NCc1ccncc1)C(=O)N/N=C/c1cccnc1	2	-1	-4	-5%	-4.2	-7	1.0%
Cc1cc(=O)[nH]c(-c2ccccc2OC(F)(F)F)n1	.	1	-9	-20%	-2.6	-4	-1.0%
COc1cc(C(=O)Nc2cccc(-n3cnnn3)c2)cc(OC)c1OC	0	0	6	18%	0.3	-14	3.4%
CCC(=O)Nc1ccc(-c2nc(-c3ccccc3)n(CC(=O)N3CCCCC3)n2)cc1	-1	1	.	14%	-2.4	6	7.4%
O=C(NCCCCNC(=O)c1ccccc1Br)c1ccccc1Br	-1	-2	.	.	2.2	-7	-0.4%
O=C(CCCSc1nc(-c2ccco2)cc(C(F)(F)F)n1)NCc1cccs1	6	-7	-17	-1%	0.2	-8	1.3%
O=C(CNC(=O)c1ccco1)Nc1ccc(F)c(Cl)c1	18	3	7	14%	-1.4	-2	1.4%
Cn1nc(C(F)(F)F)c(C(=O)Nc2ccc(C(F)(F)F)cc2)c1Cl	-2	7	-21	?	-0.8	-14	-2.3%
CCC(CC)C(=O)Nc1nnc(SCC(=O)N2CCN(c3ccccc3OC)CC2)s1	1	1	-1	11%	3.9	2	-1.6%

Single entries from the results shown:
In Six1-Eya2 inh, `O=C(NCCCCNC(=O)c1ccccc1Br)c1ccccc1Br` has the entry -2
In CtBP-E1A blk, `OC1CNc2c(ccc3ccccc23)C1` (stereo not drawn) has the entry 1
In D2 PAM, `O=C(NCc1ccncc1)C(=O)N/N=C/c1cccnc1` has the entry -7

Next section
SMILES	CtBP-E1A blk	Six1-Eya2 inh	TRPV1 potentiator	Sfp inh	D2 ag	D2 PAM	PINK1 modulator
CCNc1nc(Oc2ccc(=O)n(C)n2)nc(N2CCOCC2)n1	7	4	-4	9%	0.3	-11	-0.5%
COc1ccccc1NC(=O)Nc1ccc(Br)cn1	0	16	3	13%	-1.8	-8	1.9%
O=C(c1ccccc1)c1cnc(-c2ccccc2)s1	6	5	-10	-3%	-1.1	-14	0.9%
Cc1cc2cc(CNC(=O)c3ccc4c(c3)OCO4)ccc2n1C	11	-6	17	-21%	-1.1	-2	.
COCCN1C(=O)N[C@@H](c2cccc(F)c2)C(C(C)=O)=C1C	7	1	.	23%	0.2	-4	0.9%
CC(C)Cn1c(N)c(C(=O)COC(=O)C2CC(=O)N(Cc3ccccc3Cl)C2)c(=O)n(C)c1=O (stereo not drawn)	0	7	-5	5%	2.9	0	-1.1%
CCOC(=O)c1ccc(S(=O)(=O)N2CCN(C(=O)C3CSC4(C)CCC(=O)N34)CC2)cc1 (stereo not drawn)	.	9	-1	.	-1.1	-10	0.7%
CCc1nc(N)c(C#N)c(-c2ccc(F)cc2)c1C	15	8	3	22%	-4.0	-4	0.1%
Cc1cccc(Nc2nnc(SCC(=O)c3c(N)n(C4CC4)c(=O)[nH]c3=O)s2)c1	.	4	20	.	-2.6	-5	6.8%
Cn1cc(-c2nc3ccccc3[nH]2)c2ccccc21	-7	-9	11	-18%	0.5	-36	1.8%
O=C(COC(=O)C1CCN(c2ccc(C(F)(F)F)cn2)CC1)NCc1ccccc1	.	10	-20	.	-0.4	5	1.0%
O=C(Cc1ccccc1F)NCC(=O)Nc1ccccc1Br	0	-1	4	16%	-1.7	-2	-2.6%
CCn1c(CNc2ccc(F)cc2)nnc1SCC(=O)Nc1ccc(OC)cc1OC	-2	-6	-9	3%	-2.1	-13	0.2%[38.3 µM]
Cc1csc(NC(=O)CSc2ccc(-c3ccc(F)cc3)nn2)n1	-4	-1	-12	2%	-3.8	-10	0.5%
Cc1ccc(Cc2c(-c3ccc(F)cc3)nc3ccc(Br)cn23)cc1	-3	2	.	.	-2.4	-5	?

Full records from above:
COCCN1C(=O)N[C@@H](c2cccc(F)c2)C(C(C)=O)=C1C in the list: CtBP-E1A blk = 7; Six1-Eya2 inh = 1; TRPV1 potentiator = .; Sfp inh = 23%; D2 ag = 0.2; D2 PAM = -4; PINK1 modulator = 0.9%
Cc1cccc(Nc2nnc(SCC(=O)c3c(N)n(C4CC4)c(=O)[nH]c3=O)s2)c1 in the list: CtBP-E1A blk = .; Six1-Eya2 inh = 4; TRPV1 potentiator = 20; Sfp inh = .; D2 ag = -2.6; D2 PAM = -5; PINK1 modulator = 6.8%

Other results:
SMILES	CtBP-E1A blk	Six1-Eya2 inh	TRPV1 potentiator	Sfp inh	D2 ag	D2 PAM	PINK1 modulator
Cn1nc(C(F)(F)F)c(C(=O)Nc2ccc(F)cc2F)c1Oc1cccc(Cl)c1	11	13	9	14%	-2.7	-11	8.0%[38.3 µM]
Cc1ccc(C)c(OCCC(=O)Nc2ccc(S(=O)(=O)N3CCCC3)cc2)c1	.	-6	4	.	-0.5	-20	1.6%
COc1ccc(CCNC(=O)CN(c2ccc(OC)c(OC)c2)S(=O)(=O)c2ccc(C)cc2)cc1	5	-1	-34	17%	3.1	-4	2.4%
CSc1nc(N(C)NC(=O)c2ccc(F)cc2)c2ccccc2n1	-3	9	6	11%	-2.3	-4	5.7%
CC(C)Cc1n[nH]c(=O)[nH]1	5	4	7	17%	-1.5	0	-1.1%
COCCOc1ccc(C(F)(F)F)cc1NC(=O)CN1C(=O)NC2(CCc3ccccc32)C1=O (stereo not drawn)	9	-6	0	.	4.3	-1	0.2%
COc1ccccc1Oc1ccc2c(c1)C(=O)N(CC1CCCO1)C2=O (stereo not drawn)	7	1	.	6%	0.4	-4	-0.1%
O=C(NCCS(=O)(=O)NCCc1ccccc1)c1ccc2c(c1)OCO2	0	5	-26	.	-7.2	-13	0.0%
O=C(Nc1ccc(Cl)cc1C(F)(F)F)c1ccccc1Cl	16	10	17	9%	4.8	-2	3.9%
O=c1cc(-c2ccccc2)nc2nc(-c3ccccc3)[nH]n12	4	7	-13	22%	-2.9	-15	-0.4%
CC(C)CN(CC(C)C)C1=N/C(=C\c2ccco2)C(=O)N1c1ccccc1	19	28	-2	32µM*	-1.8	-13	1.0%
N#Cc1cccnc1N1CCN(C(=O)c2cccs2)CC1	-2	1	-18	3%	6.8	-8	-0.9%
O=C(NNS(=O)(=O)c1ccccc1F)c1cc(-c2ccccc2)n[nH]1	-4	3	-8	11%	-2.1	-2	2.3%
O=S1(=O)CC(N2CCN(Cc3ccccc3F)CC2)CN1Cc1cn(Cc2ccc(F)cc2)nn1 (stereo not drawn)	-19	6	.	.	.	.	0.6%
O=C(CNC(=O)C1CCCCC1)NC1=NCCS1	13	-1	-4	-1%	0.3	0	-5.7%[38.3 µM]
COc1ccccc1Cn1c(=O)c2ccccc2n2c(SCc3csc(C)n3)nnc12	5	2	-5	-3%	-3.7	-11	.
Cc1ccc(CSCCNC(=O)CN2C(=O)c3ccccc3S2(=O)=O)cc1	8	-2	3	1%	-0.3	-4	.
COc1cc2c(cc1OC)C(CCc1ccccc1)=NCC2	0	-3	-3	3%	-2.7	-10	1.6%
Cc1cc(CNC(=O)COc2ccc(C)c(C)c2)c2ccccc2n1	-1	3	-4	-4%	2.2	1	1.8%
Cc1cc(C(=O)N/N=C/c2ccc3c(c2)OCO3)c2ccccc2n1	-10	-16	8	-9%	-1.0	0	3.3%
Cc1ncsc1CCOC(=O)c1cccc([N+](=O)[O-])c1	-6&1	-3&-1	-13&5	6%&-21%	0.3&-1.0	-12&6	-0.8%&4.1%
COc1ccccc1N1CC(C(=O)Nc2nnc(SCC(=O)N3CCOCC3)s2)CC1=O (stereo not drawn)	-2	-10	4	9%	-2.7	-1	-1.1%
Cc1cccc(OCC(=O)Nc2ccc(N3CCN(S(C)(=O)=O)CC3)cc2)c1C	-2	7	-6	15%	0.9	-5	4.8%
CSc1ccc(C#N)cc1NC(=O)c1cccc(Cl)c1	5	0	-1	15%	-4.2	-4	3.1%
CCCCn1c(N)c(N(CCOC)C(=O)CSCc2ccc(Cl)c(Cl)c2)c(=O)[nH]c1=O	-13	5	19	.	-6.9	-5	1.1%
Nc1cc(S(=O)(=O)Nc2ccccc2Cl)ccc1N1CCCC1	-3	7	-34	-4%	-2.3	-11	1.2%
O=C1c2ccccc2NC(c2ccccn2)N1c1ccccc1F (stereo not drawn)	5	10	0	18%	-1.4	-17	22%[38.3 µM]
O=C(CSc1nnc(CCCO)n1-c1ccccc1)Nc1nccs1	11	4	23	14%	-2.8	-13	2.4%[38.3 µM]
COc1cc2c(cc1CNC[C@H]1O[C@@H](n3cc(C)c(=O)[nH]c3=O)C[C@@H]1O)OCO2	0	0	.	.	3.2	.	-0.1%
O=C(CN(CC1CCCO1)S(=O)(=O)c1ccc(S(=O)(=O)NCC2CCCO2)cc1)Nc1ccccc1 (stereo not drawn)	1	-1	4	11%	0.4	4	5.0%[38.3 µM]
COc1ccc(/C(C)=N/NC(=O)c2ccncc2)cc1[N+](=O)[O-]	-3	-15	-6	5%	1.8	-8	-0.6%
O=C(/C=C/c1cccc(Cl)c1)NCCN1CCOCC1	1	5	-6	8%	-1.1	-13	1.8%
O=C(OCc1nc2ccccc2[nH]1)C1CCCCC1	.	7	-42	-8%	13	-2	-0.6%
CN(Cc1ccco1)C(=O)c1ccc(N2CCCC2=O)cc1	-1	1	3	9%	-1.9	-5	0.0%
OCc1ccnc2c(O)cccc12	-92*	-89*	-10	3%	5.2	21	6.0%
CCN(CC)S(=O)(=O)c1cccc(NC(=O)CNC2CCCCCC2)c1	.	5	-9	-9%	-3.6	-18	2.1%
Fc1ccc(-c2nc3cnccn3c2NC2CCCC2)cc1	5	3	-8	-1%	-0.5	5	1.2%
CCOC(=O)C1=CCN(S(=O)(=O)c2ccc(C)cc2)C1c1cccs1 (stereo not drawn)	3	3	.	.	2.3	0	1.6%
CN1CCN(c2ccc(C(=O)c3ccccc3)cc2[N+](=O)[O-])CC1	9	-13	-2	6%	-2.0	-13	1.2%
C/C=C/c1ccc(OCCCNC2CCCC2)c(OC)c1	21	12	-7	?	-3.1	-41	3.3%

High-throughput results: PubChem BioAssay, National Center for Advancing Translational Sciences (NCATS)
